Screening results as filed in PubChem BioAssay.
Rce1 inhib – yeast Ras-converting enzyme inhibition; Q03530; yeast membranes, quenched prenylated peptide cleavage fluorescence; calls only; hit rate 0.27% among 290,000; AID 2563;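 active means fall in fluorescence gain of 50% or more versus controls, with final raw signal at or below 3038400; inconclusive means same 50% fall but final raw signal above 3038400; inactive means fall in fluorescence gain under 50%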;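 further: plate controls were neutral control wells for no effect and wells lacking membranes for full effect; tested at 10 µM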
Target sequence (Q03530 whole entry, looked up): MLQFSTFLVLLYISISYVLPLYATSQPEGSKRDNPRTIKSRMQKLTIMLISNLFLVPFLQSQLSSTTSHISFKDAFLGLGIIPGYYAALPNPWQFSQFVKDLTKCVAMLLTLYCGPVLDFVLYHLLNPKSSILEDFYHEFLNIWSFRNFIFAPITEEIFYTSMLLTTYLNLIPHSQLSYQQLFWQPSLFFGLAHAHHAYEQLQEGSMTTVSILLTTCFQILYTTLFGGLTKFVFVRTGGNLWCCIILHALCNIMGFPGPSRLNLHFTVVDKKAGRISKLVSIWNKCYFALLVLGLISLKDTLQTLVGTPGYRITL
MT1-MMP act inh – blocks activation of human MT1-MMP; hit rate 0.061% among 360,000; P50281; GFP/RFP ratio change, % at 20 µM; HT1080 RFP-PRO-GFP cells, GFP/RFP ratio fluorescence, overnight; percent of plate control window, DMSO zero;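 active means GFP/RFP ratio change of at least 30% with cell ATP level not reduced by more than half and red fluorescence within 50% of control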; further: strong numbers were not always called active
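Compound: 20 µM single dose, 1% DMSO / System: HT1080 RFP-PRO-GFP cells / Controls: DMSO and RFP-L50D-GFP cell wells / Read-out basis: GFP/RFP fluorescence ratio / Schedule: overnight compound exposure at 37 °C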
eIF4H inh – inhibitors of RNA binding by human eIF4H | inhibition, % at 35 µM | Q15056 | hit rate 0.94% among 290,000 | eIF4H fluorescence polarization binding assay;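 active means 50% or more with normal probe brightness, or confirmed in later tests; inconclusive means above 50% with abnormal brightness, or retests that disagree; inactive means below 50% or failed in later tests; about a fifth of its hits are not listed in these tables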;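 further: calls also rest on retests at 20 µM and on dose response follow-up; 0% = protein and probe with vehicle and 100% = probe without protein; strong numbers were not always called active; many hits fall short of the cut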
Env fusion inh – HIV envelope-mediated fusion inhibition; HeLa-JRFL Env/CEM21 cell fusion, luciferase; inhibition, % at 12.3 µM; hit rate 1.1% among 360,000; AID 651610;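 active means mean replicate inhibition score of at least 50 and every replicate individually at or above 50; inconclusive means only one of the two criteria met; inactive means mean below 50 and not all replicates reaching 50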;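 further: 0% = plate neutral controls and 100% = maraviroc near 300 nM; one replicate is shown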
PABP polyA inh – blocks human PABP binding to poly(A) RNA; AID 2014; fluorescence polarization; inhibition, % at 35 µM; hit rate 1% among 290,000; P11940;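 active means 50% or more with normal probe brightness, or confirmed in later tests; inconclusive means above 50% with abnormal brightness, or retests that disagree; inactive means below 50% or failed in later tests; about a fifth of its hits are not listed in these tables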;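 further: calls also rest on retests at 20 µM and on dose response follow-up; controls were probe without protein and protein plus probe with vehicle; some compounds called inactive have numbers as strong as hits; many hits fall short of the cut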
Target sequence (P11940 whole entry, looked up): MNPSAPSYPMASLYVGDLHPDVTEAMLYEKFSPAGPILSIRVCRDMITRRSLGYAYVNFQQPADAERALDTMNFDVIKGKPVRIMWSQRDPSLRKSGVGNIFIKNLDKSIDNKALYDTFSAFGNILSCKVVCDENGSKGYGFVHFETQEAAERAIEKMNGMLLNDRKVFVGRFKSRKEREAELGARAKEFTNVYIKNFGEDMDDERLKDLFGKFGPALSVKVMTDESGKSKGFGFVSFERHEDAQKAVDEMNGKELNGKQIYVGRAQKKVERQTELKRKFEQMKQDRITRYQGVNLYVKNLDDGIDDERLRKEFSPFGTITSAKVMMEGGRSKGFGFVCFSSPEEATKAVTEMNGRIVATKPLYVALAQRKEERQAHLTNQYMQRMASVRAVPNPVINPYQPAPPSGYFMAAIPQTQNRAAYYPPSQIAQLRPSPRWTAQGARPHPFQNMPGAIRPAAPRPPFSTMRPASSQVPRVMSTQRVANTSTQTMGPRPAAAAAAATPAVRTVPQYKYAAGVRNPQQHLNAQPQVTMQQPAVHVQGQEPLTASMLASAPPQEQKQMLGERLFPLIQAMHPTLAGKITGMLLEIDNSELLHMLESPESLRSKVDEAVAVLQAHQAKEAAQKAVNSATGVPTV
Yeast UUG start – modulators of start codon recognition fidelity in yeast; hit rate 0.13% among 350,000; S. cerevisiae UUG-firefly luciferase reporter, luminescence/redox ratio; activity score, % at 18.7 µM;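 active means replicate mean at a twofold rise or more, about +100% in these data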;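 further: firefly luciferase made from a UUG start codon reports start codon fidelity; reporter light over untreated wells divided by growth signal over untreated wells; some hits fall short of that in this replicate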
CSC inhib – cancer stem cell inhibition; inhibition, % at 7.5 µM; cancer stem cell-like cells viability, luminescence; hit rate 1.1% among 300,000; AID 2717;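 active means mean at 75% or more and at least half the replicates too; inconclusive means mean and replicates disagree; tested in HMLE shEcad cells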;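 further: 0% = median of negative and 100% = median of positive control wells; the first replicate is given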
eIF4H inh retest – also measured in eIF4H inh; calls as there; inhibition, %; compound at 20 µM; confirmation average;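 mean of two retest wells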
PABP polyA inh retest – second read-out of PABP polyA inh, no call of its own (marks repeat the call); inhibition, %; compound at 20 µM; confirmation repeats;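 mean of two retest wells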
MT1-MMP act inh RFP – further read-out of MT1-MMP act inh, marked with its call; RFP signal change, %; measured here: RFP expression control read;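 0 = vehicle wells; hits needed this value within 50% of zero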
Starred values were filed as active, the others as inactive; i = inactive; u = inconclusive; x = not tested or not shown; + = active, no number.

Preview, two compounds:
SMILES	Rce1 inhib	MT1-MMP act inh	MT1-MMP act inh RFP	eIF4H inh	Env fusion inh	PABP polyA inh	Yeast UUG start	CSC inhib	others
COc1c2ccc(C(=O)NCc3cc(C(F)(F)F)cc(C(F)(F)F)c3)cc2nn1C	i	4	-5	3	3	-2	-7	69
C/C(=N/NC(=O)c1cccs1)c1ccc(N2CCOCC2)cc1	i	7	9	10	x	6	-1	-10

This part in full, previewed entries included:
SMILES	Rce1 inhib	MT1-MMP act inh	MT1-MMP act inh RFP	eIF4H inh	Env fusion inh	PABP polyA inh	Yeast UUG start	CSC inhib	others
COc1c2ccc(C(=O)NCc3cc(C(F)(F)F)cc(C(F)(F)F)c3)cc2nn1C	i	4	-5	3	3	-2	-7	69
C/C(=N/NC(=O)c1cccs1)c1ccc(N2CCOCC2)cc1	i	7	9	10	x	6	-1	-10
OCC[C@@H]1C[C@@H](O)[C@H](O)[C@]2(CCCc3ccccc3O2)O1	i	3	3	11	16	0	-12	1
Cc1cc(C)c2[nH]c(=O)c(CN(CC3CCCO3)C(=S)Nc3ccccc3)cc2c1 (stereo unspecified)	i	-3	-3	-1	x	50	x	12
CC(C)COc1ccc(C(=O)Nc2ccc(SC(F)F)cc2)cc1	i	1	-10	2	-1	-2	x	6
Cc1ccc(OCCOC(=O)Nc2ccccc2)cc1	i	-3	-2	3	-3	7	x	18
Cc1ccc(O)c(CNc2cnc3ccccc3c2)c1	+	7	-3	6	0	2	10	13
Cc1cc(C)n2nc(N)c(N=Nc3cccc(Cl)c3)c2n1	i	3	-6	1	-19	-3	x	3
CS(=O)(=O)N(CC(=O)N1CCOCC1)c1cccc(F)c1	i	-4	1	5	6	6	-8	-2
O=C(Nc1ccc(SC(F)F)cc1)c1ccccc1F	i	5	-2	-4	-57	-2	x	-9
CCOC(=O)c1sc(-c2ccccc2)nc1C	i	8	5	6	-44	4	x	-11
Cc1nn(-c2ccccc2)c2sc(C(=O)OCc3nnc(-c4ccccc4)o3)cc12	i	1	-6	7	-26	10	-9	-6
Cc1cccc(N2CC(C(=O)Nc3ccc4c(c3)OCO4)CC2=O)c1C (stereo unspecified)	i	0	3	2	6	2	-12	-8
O=Nc1ccc(NO)c2ccccc12	x	-27	-15	x	35	x	-35	x
Cc1cccc(C)c1NC(=O)C(c1ccccc1)N1CC(=O)Nc2ccccc21 (stereo unspecified)	i	1	-3	27	u	4	-6	10
COc1cc(C2=NOC(C(=O)Nc3ccc(C)cc3)C2)cc(OC)c1OC (stereo unspecified)	i	4	-4	2	23	-6	x	-15
C=C(C)Cn1c(SCC(=O)O)nnc1-c1ccccc1	i	1	5	-10	-37	0	-8	-5
CCS(=O)(=O)NCc1cn2ccsc2n1	i	-1	0	-7	x	-4	x	-14
Cc1nn(CC(=O)NCCC2=CCCCC2)c(C)c1S(=O)(=O)N(C)C	x	0	1	x	6	x	-13	-8
CN(C(=O)c1cccc(NC(=O)Cc2ccc([N+](=O)[O-])cc2)c1)C1CCC1	x	4	-16	x	-13	x	-6	1
Nc1cccc(-n2cccc2)c1	i	1	4	5	1	17	x	5
CC(=O)c1ccc(OCC(=O)N2CCCC2c2ccc3c(c2)OCCCO3)cc1 (stereo unspecified)	x	1	2	x	-5	x	x	-3
COc1ccc(C2C(C#N)=C(N)Oc3n[nH]c(C)c32)cc1Cn1nc(C)c([N+](=O)[O-])c1C (stereo unspecified)	i	0	-1	1	x	-2	-4	-3
O=C(NNS(=O)(=O)c1ccc(Cl)cc1)c1cc(-c2ccccc2)nc2ccccc12	i	16	-7	-2	x	24	-12	x
CS(=O)(=O)N1CCC(C(=O)Nc2cc(Cl)ccc2Cl)CC1	i	4	6	-6	28	-2	x	0
O=C1[C@@H]2[C@@H]3C[C@@H]([C@H]4ON=C(c5ccc(Cl)cc5)[C@@H]34)[C@@H]2C(=O)N1C1CCCCC1	i	-3	-8	-5	-1	0	x	-1
Cc1cnc2ncc3sccc3c2c1	x	-2	0	5	21	0	x	x
COc1cccc(Nc2ncnc3ccccc23)c1	i	4	-4	0	x	13	-19	14
O=C(c1cc(-c2ccc3c(c2)OCO3)on1)N1CCN(c2ccccc2)CC1	i	8	-2	0	-98	-4	-13	44
CN(Cc1ccc(F)cc1)C(=O)CN1CCN(S(=O)(=O)c2ccc3c(c2)OCCCO3)CC1	x	3	-6	x	12	x	8	x
CCN(CC)CCN(Cc1cc2cc3c(cc2[nH]c1=O)OCO3)C(=S)NCCCN(C)C	i	-4	1	14	9	30	-2	12
COC(=O)c1cccc(CN2C(=O)C(C)Sc3ccc(C)cc32)c1 (stereo unspecified)	x	-7	-14	x	-9	x	1	x
CC(=O)c1ccc(NC(=O)COc2ccccc2C(=O)Nc2ccc(C)cn2)cc1	i	-5	-4	-17	-6	-1	-17	0
Cc1ccc(C2=NN(C(=O)CCCC(=O)O)C(c3ccc4c(c3)OCO4)C2)cc1 (stereo unspecified)	i	1	3	-5	5	4	5	-9
Cc1cc(=O)[nH]c2c1c(C)nn2C1CCOC(C)(C)C1 (stereo unspecified)	i	6	5	0	x	-18	-15	x
CCOC(=O)C1CCN(C(=O)CNC(=O)Cn2c(C)cc3ccccc3c2=O)CC1	i	1	-1	-11	-1	-3	-22	-2
CCC1CCCCN1C(=O)c1nn2cccnc2c1Cl (stereo unspecified)	i	5	7	-2	x	-1	3	-15
CCC1(O)CC(c2ccccc2)=NN1C(=O)c1ccccc1F (stereo unspecified)	i	1	-1	x	-4	x	-9	13
COc1cc2c(cc1OC)-c1cc(N3CCCCCC3)nc(=O)n1CC2	i	4	4	5	x	-1	x	10
Cc1cc(NS(=O)(=O)c2ccc(NC(=O)Nc3ccccc3)cc2)no1	i	3	3	-7	-8	3	-18	-15
CN(CCc1ccccc1)C(=O)c1ccc(NC(=O)Cc2ccc(NC(=O)C3CCCN(C(=O)C4CCCC4)C3)cc2)cc1 (stereo unspecified)	x	2	-18	x	11	x	-16	x
CCCc1cc(NCc2ccccn2)n2c(nc3ccccc32)c1C#N	i	4	-7	3	1	1	x	20
O=C(NC12CC3CC(CC(C3)C1)C2)c1cc2nc(-c3ccco3)cc(C(F)(F)F)n2n1	i	-12	-8	-8	x	-6	-17	42
Cc1csc(NC(=O)C2CCN(S(=O)(=O)c3ccc4c(c3)oc(=O)n4C)CC2)n1	i	5	-5	-6	-2	-1	-14	-1
O=C(Oc1c(-c2ccccc2)c(=O)n2c3c(cccc13)CC2)c1cccc([N+](=O)[O-])c1	i	0	3	-4	-18	0	-14	10
CCc1nc2oc3ccccc3c(=O)c2c(=O)n1-c1ccc(C)cc1	i	0	7	66	-76	50	3	-5	eIF4H inh retest=-2;PABP polyA inh retest=5
CCc1ccc(-c2nn(-c3ccccc3C)cc2C(=O)N2CCN(C3CCS(=O)(=O)C3)CC2)cc1 (stereo unspecified)	x	1	2	x	3	x	16	-16
COc1ccc(-c2cc(C(F)(F)F)n3nc(C(=O)N4CCCC4)cc3n2)cc1	i	-3	2	-3	x	-3	-11	9
Clc1ccc(CSc2nnc(-c3ccncc3)o2)c(Cl)c1	i	3	-7	5	-10	-2	-11	9
COc1ccc(CNC(=O)C2CCN(S(=O)(=O)c3ccc4nc5c(c(C(=O)O)c4c3)CC(C)CC5)CC2)cc1 (stereo unspecified)	i	1	4	7	-11	35	-21	-1
Cc1ccc(N=Cc2nc(/C=C/c3cccc([N+](=O)[O-])c3)oc2O)cc1	i	-95	0	-2	x	11	-7	x
O=C(O)c1ccc(CSc2n[nH]c(-c3ccco3)n2)cc1	i	-1	11	77*	-39	79*	-25	-4
CCCN(CCC)S(=O)(=O)c1ccc(C(=O)Nc2cccnc2)cc1	i	-1	-11	-8	8	7	-16	-14
C=CCn1c(SCC(N)=O)nc2sc3c(c2c1=O)CCC3	i	2	1	6	-4	6	-6	-12
CC(C)C(=O)N1CCN(c2ccc(NC(=O)c3cccs3)cc2)CC1	i	1	0	-8	x	-11	-17	-9
Cc1cccc(-n2ncc3c(N4CCCC4)ncnc32)c1	i	-2	1	-10	-192	1	-33	-9
COc1cc(C2C(C#N)=C(N)OC3=C2C(=O)CC(C)(C)C3)cc2c1OCO2 (stereo unspecified)	i	-5	0	x	1	x	x	-2
CC(C)(C)c1ccc(C(=O)Nc2cccc([N+](=O)[O-])c2)cc1	i	1	-7	3	-496	10	x	55
O=C(c1nc2ccc(Cl)cn2c1CN1CCCC(CO)C1)N1CCc2ccccc2C1 (stereo unspecified)	i	-1	6	1	-18	10	-2	-3
CCn1c(SCc2ccc(C(=O)O)cc2)nnc1-c1ccc(Cl)cc1	i	-4	0	5	9	11	-3	-11

Filtered by structure: those above containing two or more sulfur atoms (3)
SMILES	Rce1 inhib	MT1-MMP act inh	MT1-MMP act inh RFP	eIF4H inh	Env fusion inh	PABP polyA inh	Yeast UUG start	CSC inhib	others
CCS(=O)(=O)NCc1cn2ccsc2n1	i	-1	0	-7	x	-4	x	-14
Cc1csc(NC(=O)C2CCN(S(=O)(=O)c3ccc4c(c3)oc(=O)n4C)CC2)n1	i	5	-5	-6	-2	-1	-14	-1
C=CCn1c(SCC(N)=O)nc2sc3c(c2c1=O)CCC3	i	2	1	6	-4	6	-6	-12

(listing goes on)
SMILES	Rce1 inhib	MT1-MMP act inh	MT1-MMP act inh RFP	eIF4H inh	Env fusion inh	PABP polyA inh	Yeast UUG start	CSC inhib	others
C/C=C\C(=O)Nc1cccc(C2=NOC3(C2)C[C@H](C(N)=O)N(C(=O)[C@H]2CCC(=O)N2)C3)c1 (stereo partly specified)	i	x	x	1	x	10	x	-20
CCN(c1ccc(OC)cc1)S(=O)(=O)c1csc(C(N)=O)c1	i	4	3	-2	-29	6	-17	-14
Cc1sc2nc(SCC(=O)N3CCCCC3)[nH]c(=O)c2c1C	i	1	9	-2	x	-6	0	-10
C=CCn1c(O)c(N=NC(=O)CNC(=O)c2cccs2)c2ccccc21	i	1	-1	-12	5	8	x	-2
CC(C)OC(=O)CSc1nnc(-c2ccccn2)n1N	i	4	3	2	-14	-11	-4	10
O=C(O)CCc1ccc(S(=O)(=O)Nc2ccccc2N2CCCCC2)cc1	x	0	3	x	x	x	-4	-8
Cc1cc(C)n2nc(SCC(=O)N3CCCCC3C)nc2n1 (stereo unspecified)	x	-4	-1	x	-7	x	-19	-3
O=C(NCc1ccccn1)c1ccc(NS(=O)(=O)c2ccccc2)cc1	i	0	-2	-11	-8	-8	-13	-2
O=c1cn[nH]c2ccccc12	i	11	7	0	-5	3	3	-20
CCOc1ccc(N(CC(=O)NCCSCc2ccco2)S(=O)(=O)c2ccc(C)cc2)cc1	i	-3	-1	2	x	6	-2	3
O=C(CSC1CCCCC1)N1CCN(c2ccccc2)CC1	i	-7	5	-5	x	17	16	-11
O=C(NC1CCCC1)c1ccc(S(=O)(=O)N2CCCC2)cc1	x	3	-4	-2	x	-3	-10	x
COc1cccc(/C=C2\CCc3ccccc3C2=O)c1	i	-1	-1	-7	-5	2	-74	16
Cc1cc(C(=O)N/N=C/c2cc([N+](=O)[O-])ccc2O)c2ccccc2n1	i	3	-7	21	x	-9	x	3
Cn1nc(C(=O)OCC(=O)Nc2ccc(S(N)(=O)=O)cc2)c2ccccc2c1=O	i	2	2	-9	0	2	x	4
Cc1ccc(O)c(N=Nc2ccc(S(=O)(=O)N3CCCC3)cc2)c1	i	-5	0	0	-8	-6	-13	-6
COc1cc(/C=N/NC(=O)c2cccs2)ccc1O	i	-7	2	0	-8	49	-21	-8
